Screens (PubChem BioAssay)
KCNQ2 pot: potentiators of rat KCNQ2 potassium channel | Potassium voltage-gated channel subfamily KQT member 2 (Rattus norvegicus), O88943 | CHO-K1 KCNQ2, FluxOR thallium flux fluorescence; stronger effect = higher value | B-score at 10 µM | 310,000 compounds, 0.54% hits | AID 2239, 2010;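 active = fluorescence ratio B-score at least 3 SD of library B-scores, with initial fluorescence B-score within 3 SD, cut at about 5.3 in these data; same plate scores as AID 2156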;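 also: B-score of peak minus minimum over baseline fluorescence ratio after K+ and Tl+ stimulus; positive B-score means potentiation of KCNQ2 with more thallium influx and brighter signal; only the inactives scoring about 0 or higher are listed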
Target sequence (O88943 whole entry, looked up): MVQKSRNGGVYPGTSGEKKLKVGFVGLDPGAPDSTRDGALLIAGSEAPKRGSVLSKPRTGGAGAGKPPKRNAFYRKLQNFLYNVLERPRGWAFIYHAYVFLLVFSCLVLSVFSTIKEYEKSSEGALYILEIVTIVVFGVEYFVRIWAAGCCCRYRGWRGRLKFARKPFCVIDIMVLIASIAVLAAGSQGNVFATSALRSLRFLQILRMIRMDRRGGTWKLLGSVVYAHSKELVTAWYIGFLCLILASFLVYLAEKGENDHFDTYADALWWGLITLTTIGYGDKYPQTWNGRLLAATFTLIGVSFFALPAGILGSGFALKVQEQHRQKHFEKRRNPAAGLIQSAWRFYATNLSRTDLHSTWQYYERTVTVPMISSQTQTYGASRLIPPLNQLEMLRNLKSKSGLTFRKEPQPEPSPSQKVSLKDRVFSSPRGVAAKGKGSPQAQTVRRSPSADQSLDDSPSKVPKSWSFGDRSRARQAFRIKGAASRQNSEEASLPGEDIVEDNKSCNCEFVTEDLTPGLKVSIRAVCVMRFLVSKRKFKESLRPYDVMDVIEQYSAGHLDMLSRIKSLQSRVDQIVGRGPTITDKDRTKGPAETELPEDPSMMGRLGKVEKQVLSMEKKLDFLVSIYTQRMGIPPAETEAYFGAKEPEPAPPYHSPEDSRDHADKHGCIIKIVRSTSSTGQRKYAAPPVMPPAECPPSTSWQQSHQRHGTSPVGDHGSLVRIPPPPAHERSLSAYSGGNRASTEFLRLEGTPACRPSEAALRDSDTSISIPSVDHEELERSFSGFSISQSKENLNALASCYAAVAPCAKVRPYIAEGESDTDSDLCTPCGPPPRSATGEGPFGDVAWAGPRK
KCNQ2 pot baseline: also measured in KCNQ2 pot; calls as there; B-score; compound at 10 µM; measured here: initial fluorescence intensity artifact check;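 brightness before thallium and not channel activity; 0 = typical well and far values either way flag optical interference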
The depositor's hits bear a star.

SMILES | KCNQ2 pot | KCNQ2 pot baseline
O=S(=O)(N1CCCCC1)N1CCN(CC(O)COc2ccc3cc(Br)ccc3c2)CC1 (stereo unspecified) | 1.15 | -0.09
O=C1CC(N2CCC(Cc3ccccc3)CC2)C(=O)N1CCc1ccccc1 (stereo unspecified) | 5.69* | -1.04*
CSc1nc2ccccc2cc1/C=C(\C#N)c1ccccc1 | 0.43 | -0.7
Cn1c(=O)c(C(=O)N2CCc3ccccc32)cc2cccnc21 | 1.79 | -0.31
COc1ccc(N2CCCn3c2nc2c3c(=O)n(CCN3CCOCC3)c(=O)n2C)cc1 | 0.77 | -0.03
CCCc1cc(C(=O)Nc2cnn(Cc3ccc(F)cc3)c2)no1 | 0.35 | -1.43
CCn1c(CCCNC(=O)c2ccc(F)cc2)nc2ccccc21 | 0.85 | -1.79
C/C(=N/NC(=O)C1CCN(S(=O)(=O)c2ccc(C)cc2)CC1)c1cccc([N+](=O)[O-])c1 | 0.64 | 0.68
CCCCC(CC)CNC(=O)Cn1c(=O)[nH]c2ccsc2c1=O (stereo unspecified) | 0.82 | -0.67
CN(C)S(=O)(=O)N1CCN(c2ccc([N+](=O)[O-])c(N3CCOCC3)c2)CC1 | 0.03 | 0.03
O=C(NCCN1CCOCC1)c1ccccc1Oc1ccccc1 | 0.56 | -0.67
COc1ccnc(Oc2ccc(F)cc2)c1C#N | 0.67 | 0.09
COc1cc(NC(=O)C2CCCO2)c(OC)cc1NC(=O)c1ccccc1 (stereo unspecified) | 1.57 | 0.2
Cc1ccc(-n2cc[nH]c2=S)c(C)c1 | 0.39 | 2.73
O=S(=O)(NCC1CCCO1)c1ccc(Br)s1 (stereo unspecified) | 0.33 | -2.04
CCc1cccc(NS(=O)(=O)c2ccc3c(c2)oc(=O)n3C)c1 | 0.21 | 0.44
O=C(O)COc1ccccc1/C=C1\SC(=S)N(NC(=O)c2ccccc2O)C1=O | 1.09 | -1.74
C=CCN1C=CC(=O)CC1 | 0.82 | 2.57
COc1ccc(CC(=O)NC2CC2)cc1OC | 0.36 | 1.99
Cc1cc(C(=O)Nc2sc3c(c2C#N)CCCC3)no1 | 0.01 | 1.03

For reference, part of the list above:
SMILES | KCNQ2 pot | KCNQ2 pot baseline
COc1ccc(N2CCCn3c2nc2c3c(=O)n(CCN3CCOCC3)c(=O)n2C)cc1 | 0.77 | -0.03
CCCc1cc(C(=O)Nc2cnn(Cc3ccc(F)cc3)c2)no1 | 0.35 | -1.43
CCn1c(CCCNC(=O)c2ccc(F)cc2)nc2ccccc21 | 0.85 | -1.79
C/C(=N/NC(=O)C1CCN(S(=O)(=O)c2ccc(C)cc2)CC1)c1cccc([N+](=O)[O-])c1 | 0.64 | 0.68
CCCCC(CC)CNC(=O)Cn1c(=O)[nH]c2ccsc2c1=O (stereo unspecified) | 0.82 | -0.67
CN(C)S(=O)(=O)N1CCN(c2ccc([N+](=O)[O-])c(N3CCOCC3)c2)CC1 | 0.03 | 0.03
O=C(NCCN1CCOCC1)c1ccccc1Oc1ccccc1 | 0.56 | -0.67
COc1ccnc(Oc2ccc(F)cc2)c1C#N | 0.67 | 0.09
COc1cc(NC(=O)C2CCCO2)c(OC)cc1NC(=O)c1ccccc1 (stereo unspecified) | 1.57 | 0.2
Cc1ccc(-n2cc[nH]c2=S)c(C)c1 | 0.39 | 2.73
O=S(=O)(NCC1CCCO1)c1ccc(Br)s1 (stereo unspecified) | 0.33 | -2.04
CCc1cccc(NS(=O)(=O)c2ccc3c(c2)oc(=O)n3C)c1 | 0.21 | 0.44
O=C(O)COc1ccccc1/C=C1\SC(=S)N(NC(=O)c2ccccc2O)C1=O | 1.09 | -1.74
C=CCN1C=CC(=O)CC1 | 0.82 | 2.57

(continued)
SMILES | KCNQ2 pot | KCNQ2 pot baseline
CN(C)CCNc1nc(-c2ccccc2)nnc1C(F)(F)F | 0.59 | -0.3
Cc1cc(=O)oc(C)c1C(=O)Nc1ccc2nsnc2c1 | 2.09 | -1.44
O=[N+]([O-])c1cc(S(=O)(=O)N2CCCC2)ccc1N/N=C/c1cccs1 | 0.27 | 1.74
NC(=O)c1cc(S(=O)(=O)NCc2ccc(Br)cc2)cs1 | 0.95 | 0.46
O=C(CCCc1ccccc1)NCc1cccnc1 | 0.64 | 1.65
O=C1CSC(c2cccc([N+](=O)[O-])c2)N1c1ccccc1F (stereo unspecified) | 2.51 | -0.19
CCSc1nnc(NC(=O)CSc2nnc(CNC(=O)c3cc(OC)c(OC)c(OC)c3)o2)s1 | 0.32 | -1.67
CSCCNC(=O)c1ccc2nc(C3CCCCC3)oc2c1 | 1.12 | 1.31
O=C(OC1CCCCC1)c1ccc(NC(=O)c2ccco2)cc1 | 2.39 | -3.15
CCOC(=O)c1sc2nccc(OC)c2c1N=CNOC | 0.53 | -0.65
O=c1[nH]c(N2CCCCC2)nc2c1CCCC2 | 0.54 | -0.01
Cc1onc(C(=O)Nc2ccccc2C(F)(F)F)c1[N+](=O)[O-] | 0.79 | 1.35
Cc1nc2nc(COc3ccccc3)[nH]n2c(=O)c1Cl | 1.07 | 1.19
CC(=O)c1ccc(OCc2cc(C(=O)N3CC4C[C@@H]5CC3C[C@H](C4)C5)no2)cc1 | 2.04 | 0.62
Nc1ccnn1-c1ccccc1 | 0.1 | 0.02
COc1cc(/C=C2\SC(N)=NC2=O)ccc1OCC(=O)Nc1ccc(C)cc1 | 0.01 | -0.03
O=C(Cn1ccc2ccccc2c1=O)NCC(=O)N1CCN(c2ccc(F)cc2)CC1 | 0.04 | 0.26
Cc1nnc(NC(=O)c2ccc(S(=O)(=O)N3CCCCC3C)cc2)o1 (stereo unspecified) | 2.03 | -0.4
Cc1ccc(-c2ccccc2)n1-c1ccc(C(=O)O)cc1 | 1.21 | -0.16
FC(F)(F)c1nnc(Nc2ccc(Cl)cc2)s1 | 3.15 | -0.93
CC(C)c1ccc(NC(=S)N(C)CCc2ccccn2)cc1 | 0.12 | -1.02
CCN(CC)C(=O)COc1ccc(-c2ccccc2)cc1 | 0.49 | -0.66
C#CCOCCOCCOCCNc1nc(N2CCN(C(=O)[C@H](CCC(=O)O)n3cc(C(N)[C@H](C)CC)nn3)CC2)nc(N2CCN(C(=O)[C@H](Cc3cc4ccccc4[nH]3)n3cc(C(N)[C@H](C)CC)nn3)CC2)n1 (stereo partly specified) | 1.01 | -1.22
CCOc1ccc(NC(=O)CSc2nc3ccccc3c(=O)n2Cc2cccs2)cc1 | 0.14 | 0.92
Cc1ccc(-c2cn(-c3ccccc3)c(SCC(=O)NC3CCS(=O)(=O)C3)n2)cc1C (stereo unspecified) | 1.54 | 0.35
Cc1sc(N/N=C/c2cccnc2)nc1-c1ccccc1 | 0.22 | -0.69
N#Cc1nc(-c2ccco2)oc1N1CCC(Cc2ccccc2)CC1 | 0.29 | -1.24
CC(C)(C)c1ccc(-c2cc(N)n[nH]2)cc1 | 0.7 | 0.24
CCOP(=O)(OCC)C(C)(C)NC(=O)c1cc([N+](=O)[O-])cc([N+](=O)[O-])c1 | 0.77 | -1.61
CCC(=O)OCC(=O)N=c1sccn1Cc1ccccc1Cl | 2.08 | -0.49
CCC(C(=O)NCCc1ccc(C)cc1)n1nc(C)c2c(C)n(-c3ccccc3)nc2c1=O (stereo unspecified) | 0.13 | -0.13
Cn1c(SCC(=O)NC(=O)NCc2ccco2)nnc1-c1ccccc1 | 1.73 | -0.86
Cc1cccc(NC(=S)NC(=O)c2oc3ccccc3c2C)n1 | 1.75 | 0.76
COc1ccc(NC(=O)Nc2ccccc2F)cc1 | 1.42 | -0.13
Cc1ccc(-n2c(CSc3nc(C)cc(C)n3)nnc2SCC(=O)Nc2nccs2)cc1 | 0.04 | -0.49
Cc1cc(NC(=O)C2CC(c3ccccc3Cl)=NO2)no1 (stereo unspecified) | 0.33 | 0.01
Cn1c(=O)c2c(O)cc(=O)n(-c3ccccc3)c2n(C)c1=O | 0.37 | -0.16
O=C(c1cc2ccccc2o1)N1CCCC1 | 0.73 | 1.07
C=CCn1c(CCc2ccccc2)nnc1SCC(N)=O | 1.17 | -0.02
Cc1ccc(C)c(N(C(=O)c2snc(C(N)=O)c2N)C(C(=O)NCC2CCCO2)c2cccs2)c1 (stereo unspecified) | 0.63 | -1.51
CC1(C)CC(=O)C=C(C(=O)N2CCCC(C(=O)c3cccc(C(F)(F)F)c3)C2)O1 (stereo unspecified) | 0.21 | -0.93
Cc1ccc2c(c1)N(C(=O)CCC(=O)NCCCN1CC(C)CC(C)C1)CCO2 (stereo unspecified) | 0.01 | 0.18
COc1ccc(NC(=O)COC(=O)c2ccc(O)cc2)c([N+](=O)[O-])c1 | 2.27 | -1.29
CCOC(=O)COc1ccc(/C=C2/C(=O)NN(c3ccc(F)cc3)C2=O)cc1OC | 1.98 | 1.41
Cn1c(SCC(=O)Nc2ccc(F)cc2F)nnc1-c1cccnc1 | 1.67 | -0.04
COc1ccc(/C=C(\C#N)C(=O)OCC(=O)N2CC(C)OC(C)C2)cc1 (stereo unspecified) | 0.21 | 0.18
CC(=O)Cc1nsc(NC(=O)c2ccccc2Cl)n1 | 0.32 | 0.34
Cn1c(=O)c(Cc2ccccc2)c(O)c2ccccc21 | 0.26 | -1.63
COc1ccc(NC(=O)C2C3CCC(O3)C2C(=O)O)cc1OC (stereo unspecified) | 1.07 | 0.23
COc1ccc(-n2c(SCC(=O)N3CCOCC3)nc(O)c(Cc3ccccc3)c2=O)cc1 | 1.22 | -0.4

Continued.
SMILES | KCNQ2 pot | KCNQ2 pot baseline
Nc1nonc1C(=O)NCCNCc1ccccc1OCc1ccc(F)cc1 | 0.77 | 0.05
COc1cccc(-c2cc(C(F)(F)F)nc(N3CCC(C)CC3)n2)c1 | 0.18 | -0.47
C=CCN1C(=NC(=O)COc2ccc(Cl)cc2)SC2CS(=O)(=O)CC21 (stereo unspecified) | 0.76 | -1.35
COc1ccc(-c2noc(N3CCC(C(=O)NCCCN4CCC(C)CC4)CC3)n2)cc1 | 1.98 | 0.53
CCc1ccc(CNC(=O)CCC(=O)N2Cc3cccc(OC)c3Oc3ncccc32)cc1 | 0.41 | -0.56
Cc1ccc(C)c(NC(=S)NCc2ccccc2)c1 | 0.72 | -0.03
CCOc1cc(/C=C2\SC(=S)N(N3CCOCC3)C2=O)ccc1O | 1.68 | -1.43
Cc1ccc(NC(=O)CCN2C(=O)c3cccc4cccc(c34)C2=O)cc1 | 0.67 | 1.84
COc1cc(CNCc2ccccn2)ccc1OCc1ccccc1Cl | 2.33 | -0.07
O=C(COC(=O)/C=C/c1cccc(Br)c1)NCCC1=CCCCC1 | 0.21 | 0.12
COc1cc2c(cc1OC)C(c1ccccc1OC(C)C)CC(=O)N2 (stereo unspecified) | 0.71 | 1.29
O=C(O)CC(NC(=O)COc1ccccc1)c1cccc([N+](=O)[O-])c1 (stereo unspecified) | 2 | 0.48
O=C(Nc1cccc(O)c1)C(=O)Nc1ccccn1 | 0.9 | 1.33
O=C(NCC1OCCc2ccccc21)c1ccco1 (stereo unspecified) | 0.09 | 0.12
Cc1cc(Cl)nc(-c2ccccc2O)n1 | 1.11 | -0.24
CN(C)S(=O)(=O)c1ccc(N2CCCC2)c(C(=O)N2CCC(C(N)=O)CC2)c1 | 1.28 | -0.5
Cn1c(=O)c2c(ncn2CC(=O)N2CCc3ccccc3C2)n(C)c1=O | 0.04 | 0.54
COc1ccc(Cl)cc1NC(=O)C/C(C)=N/NC(=O)c1ccc(O)cc1 | 1.55 | 0.04
Cc1ccc(NC(=O)CCc2ccc(C)o2)cc1 | 1.07 | 1.36
COc1cc(S(=O)(=O)N2CCOCC2)ccc1NC(=O)CN1c2cccc3cccc(c23)S1(=O)=O | 0.46 | -0.68
CC(=O)Nc1ccc(NC(=O)CCCSc2nc3ccccc3[nH]2)cc1 | 0.52 | 0.01
Cc1ccc(CNC(=O)CNC(=O)[C@@H]2Cc3ccccc3CN2C(=O)OC(C)(C)C)cc1 | 1.15 | -1.04
COc1ccc(CCNCC(O)c2ccccc2)cc1 (stereo unspecified) | 0.85 | 0.98
CCCN1CNc2c(c(=O)[nH]c(=S)n2CCc2ccccc2)C1 | 0.52 | 0.66
CCCNS(=O)(=O)c1cc(Br)cc2c1N(C(=O)CC)CC2 | 0.53 | 0.12
CC(C)N1CCN(Cc2cnc(-c3ccccc3)s2)CC1CCO (stereo unspecified) | 0.56 | -0.36
OCCC1CN(Cc2ccc3ncccc3c2)CCN1Cc1ccccc1 (stereo unspecified) | 0.17 | -1.31
CCCN1CCC(NCc2cn(C)nc2-c2ccc(Oc3ccccc3)cc2)CC1 | 0.1 | -0.85
CCOC(=O)c1[nH]c(C)c(C(=O)/C=C/c2ccc(C(=O)O)cc2)c1C | 1.42 | -0.02
O=S(=O)(NNc1ccc(Cl)nn1)c1ccc(F)cc1 | 0.55 | -1.29
Cc1ccc2nc(SCC(=O)NNC(=O)c3ccccc3)[nH]c2c1 | 0.11 | -0.81
O=C(NC1CCCN(Cc2ccccc2F)C1)C1CCC1 (stereo unspecified) | 1.32 | -1.7
Cc1ccc(S(=O)(=O)NC2c3cccc4cccc(c34)C2Sc2nncn2C)cc1 (stereo unspecified) | 1.49 | -0.42
CCCn1nc2cc(C(=O)NCCc3cccs3)ccc2c1OCC | 0.68 | -2.91
O=C1CCCc2sc3c(c2N1)CCCCC3 | 1.55 | -1.63
Cc1nc(CS(=O)(=O)c2ccccc2)cc(Sc2ccccc2Cl)n1 | 0.42 | -1.33
O=C(Cn1nnc(-c2ccccc2)n1)N1CCCCC1 | 1.53 | 0.02
CCNc1c(NC(C)=O)c(=O)oc2ccccc12 | 1.72 | -0.02
O=C1NC(CCc2ccccc2)C(=O)N1Cc1ccc(Br)cc1 (stereo unspecified) | 1.03 | -2.09
CC(C)(C)C(=O)NC(=S)Nc1ccccc1C(N)=O | 0.57 | -0.87
COc1ccc(C(C)=O)cc1CSc1nc2cc(Cl)ccc2o1 | 0.41 | 0.54

These rows are one share of the data; rates above refer to the full screens.
